Source: PubChem (National Center for Advancing Translational Sciences (NCATS))
VDR inhibitor – vitamin D3 receptor (human) inhibition; VDR-SRC2-3 peptide fluorescence polarization, 2 h; P11473; hit rate 0.93% among 400,000; Potency, µM, for the others: max response, negative = inhibition, most hits filed as inhibitors; active means well fitted inhibition curve with a large enough effect; further: series mostly up to about 120 µM
Target sequence (P11473 whole entry, looked up): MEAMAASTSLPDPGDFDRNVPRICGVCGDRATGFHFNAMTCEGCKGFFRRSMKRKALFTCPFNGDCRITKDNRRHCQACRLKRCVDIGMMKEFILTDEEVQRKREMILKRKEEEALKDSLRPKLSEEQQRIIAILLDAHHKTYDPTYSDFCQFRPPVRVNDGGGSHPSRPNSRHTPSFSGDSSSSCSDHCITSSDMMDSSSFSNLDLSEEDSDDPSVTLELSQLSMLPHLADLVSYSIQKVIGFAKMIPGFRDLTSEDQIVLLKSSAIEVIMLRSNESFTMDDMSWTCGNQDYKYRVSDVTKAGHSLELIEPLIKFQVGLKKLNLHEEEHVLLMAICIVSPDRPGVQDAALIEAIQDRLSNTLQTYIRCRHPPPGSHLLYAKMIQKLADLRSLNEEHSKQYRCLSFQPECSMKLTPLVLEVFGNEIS
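Inhibition of the VDR/SRC2-3 peptide interaction is quantified by fluorescence polarization. Compounds (23 nl, pintool) incubate with the reagents for 2 hours at ambient room temperature.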
* = called active by the depositor; & = joins results of further samples; [ ] = dose if it differs, or a comment. On the % scale 0 is the no-effect control and ±100 the full control effect; potency means the concentration at half of the fitted maximal effect.

SMILES	VDR inhibitor
Cc1ccc(NC(=O)COC(=O)c2ccc(S(=O)(=O)N3CCCC3)cc2)cc1	0%
CCCCC1=CC2=CC(=O)C(C)(OC(=O)CCC(=O)OC)C(=O)C2=CO1 (stereo not drawn)	1%
Cc1noc(C)c1NC(=O)N(C)C[C@H]1Oc2ccc(NC(=O)C3CC3)cc2C(=O)N([C@H](C)CO)C[C@@H]1C	16%
CC(C)(C)[C@H]1COC(=O)CC/C=C\C[C@H](CC(=O)N(CCO)Cc2ccccc2)C(=O)N1	-25%
Cc1ccccc1-c1nc(SCc2ccccn2)c2c(=O)n(C)c(=O)n(C)c2n1	-7%
COc1ccc(NC(=O)C2=Cc3ccccc3OC2)cc1	1%
N=c1c(-c2nc3ccccc3[nH]2)cc(C(=O)c2ccco2)nn1-c1ccccc1	-14%
Nc1nc2c(c(=O)[nH]1)N(C=O)C(CNc1ccc(C(=O)NC(CCC(=O)O)C(=O)O)cc1)CN2 (stereo not drawn)	-3%
CC(NCc1ccc(-c2ccccc2)cc1)C(O)c1ccccc1 (stereo not drawn)	2%
CC(C)=CCCC1(C)C=Cc2c(c(C)cc3c2[nH]c2cc(O)ccc23)O1 (stereo not drawn)	9%
O=C(CCCn1c(=O)c2ccccc2n(Cc2ccc(F)cc2Cl)c1=O)NCCc1ccc(Cl)cc1	2%
COc1ccccc1N1CCN(CCCNC(=O)c2cnn(-c3cccc(Cl)c3)c2C2CCN(C(=O)OC(C)(C)C)CC2)CC1	5%
CCOc1ccc(N(CC(=O)NC2CCCCC2)S(=O)(=O)c2ccccc2)cc1	-1%
CCc1ccc(NC(=O)CSc2nccn2-c2ccc(F)cc2)cc1	8%
Cc1cc(C)n(C(C)CNS(=O)(=O)c2ccccc2)n1 (stereo not drawn)	-14%
C/C(N)=C(/C#N)C(=O)COC(=O)CNC(=O)c1ccc(Cl)cc1Cl	-21%
CCOC(=O)c1cnn(-c2ccccc2)c1NC(=O)c1ccccc1	-7%
NS(=O)(=O)c1ccc2c(c1)C(=NO)c1cc(S(N)(=O)=O)ccc1-2	-8%
CSc1nnc2c(=O)[nH]c(=O)n(C)c2n1	6%
Cc1ccc(CN=c2c([N+](=O)[O-])nn(-c3cccc(Cl)c3)n2O)cc1	3%
Cn1nccc1C(=O)N1CCN(c2ccccc2Cl)CC1	3%
O=C(CSc1nnc(-c2ccoc2)o1)N1CCOCC1	12%
Cc1nnc(NC(=O)CSc2nccn2Cc2ccc(F)cc2)s1	-21%&12%
CCOC(=O)c1cc(C)n(CC2CCC(C(=O)Nc3ccc(Cl)cc3)CC2)c1C (stereo not drawn)	11%
O=C(CNC(=O)c1ccccc1C(=O)O)c1ccccc1	-8%

Of the compounds above, two have two or more sulfur atoms.
SMILES	VDR inhibitor
NS(=O)(=O)c1ccc2c(c1)C(=NO)c1cc(S(N)(=O)=O)ccc1-2	-8%
Cc1nnc(NC(=O)CSc2nccn2Cc2ccc(F)cc2)s1	-21%&12%

The main list resumes, repeating the 6 entries before the break.
SMILES	VDR inhibitor
Cc1ccc(CN=c2c([N+](=O)[O-])nn(-c3cccc(Cl)c3)n2O)cc1	3%
Cn1nccc1C(=O)N1CCN(c2ccccc2Cl)CC1	3%
O=C(CSc1nnc(-c2ccoc2)o1)N1CCOCC1	12%
Cc1nnc(NC(=O)CSc2nccn2Cc2ccc(F)cc2)s1	-21%&12%
CCOC(=O)c1cc(C)n(CC2CCC(C(=O)Nc3ccc(Cl)cc3)CC2)c1C (stereo not drawn)	11%
O=C(CNC(=O)c1ccccc1C(=O)O)c1ccccc1	-8%
N#Cc1ccc(C(=O)NC2CCCc3ccccc32)cc1 (stereo not drawn)	5%
Cc1cc(=O)[nH]c(SCC(=O)c2c(N)n(C)c(=O)n(C)c2=O)n1	-15%
CC(NC(=O)c1ccc(Cl)cc1)c1nnc(SCC(=O)NC2=NCCS2)n1C (stereo not drawn)	-6%
CC1Cc2ccccc2N1C(=O)CNc1ccccc1N1CCCCC1 (stereo not drawn)	-1%
NCCCC[C@H](NC(=O)C1CCNCC1)c1nnc([C@@H](N)CO)o1	-15%
Cc1ccc(OCCN2C(=O)c3ccccc3C2=O)c([N+](=O)[O-])c1	0%
COC(=O)c1ccc(NC(=O)c2c(NCc3cccc(F)c3)sc3c2CCCC3)cc1	-12%
Cc1cc(C(=O)CSc2nc(N)cc(N)n2)c(C)n1-c1cccc(C(F)(F)F)c1	8%
COc1cccc(OC)c1C(=O)NNC(=O)c1ccc(F)cc1	-19%
Cc1ccc(CCc2nnc(SCC(=O)Nc3ccccc3Cl)n2-c2ccccc2)o1	-10%
Cc1ccc(C)c(NC(=O)c2ccc(N(C)S(C)(=O)=O)cc2)c1	-13%
CCOC(=O)[C@@H](N)CS	40µM*
CCS(=O)(=O)c1ccc(-c2csc(-c3ccccc3)n2)c(Cl)c1Cl	-1%
O=c1c2[nH]c3cccc(Cl)c3c2ncn1CC1CCCO1 (stereo not drawn)	-19%
Cc1ccc(C(=O)COC(=O)CNC(=O)Cc2ccccc2)cc1[N+](=O)[O-]	-4%
O=C(O)CSc1nnc(Cn2c(=O)sc3ccccc32)n1-c1cccc(Cl)c1	-3%
COc1cc(COc2ccc(S(=O)(=O)N3CCOCC3)cc2[N+](=O)[O-])ccc1OC(F)F	-16%
O=S(=O)(Nc1ccc2cn[nH]c2c1)c1ccc(Cl)s1	-4%
CCOC(=O)C1=C(N)OC2=C(C(=O)CCC2)C1c1ccccc1OC (stereo not drawn)	27%
O=C(Nc1ccc(Cl)cc1)c1nc[nH]c1C(=O)NCCN(CCNC(=O)c1[nH]cnc1C(=O)Nc1ccc(Cl)cc1)CCNC(=O)c1[nH]cnc1C(=O)Nc1ccc(Cl)cc1	7%
COc1cc(S(=O)(=O)N(CCc2ccccc2)Cc2cccs2)ccc1-n1cnnn1	2%
COc1ccc(CN(CC(=O)NCc2ccccc2)C(=O)c2csnn2)cc1	-9%
COc1ccc(CNc2ncnc3ccc(-c4ccccc4CN(C)C)cc23)c(OC)c1	2%
COc1cc(Cl)ccc1OCc1cc(C(=O)N2CCCCCCC2)no1	15%
O=C(CSc1nc2ccccc2[nH]1)N1CCN(C(=O)c2ccco2)CC1	-3%

Fetched by structure from the entries so far:
SMILES	VDR inhibitor
Cc1cc(=O)[nH]c(SCC(=O)c2c(N)n(C)c(=O)n(C)c2=O)n1	-15%
COC(=O)c1ccc(NC(=O)c2c(NCc3cccc(F)c3)sc3c2CCCC3)cc1	-12%

(next part)
SMILES	VDR inhibitor
Cc1ccc(C(=O)Nc2nnc(S(=O)(=O)N3CCCCCC3)s2)cc1	0%&1%
Cc1cc(C)n(CC(O)Cn2c3ccccc3c3ccccc32)c(=O)n1 (stereo not drawn)	-3%
CSc1cc(-c2ccco2)oc1C(=O)c1ccco1	-16%
Cc1cc(O)c(-c2cc(O)c(C)cc2O)cc1O	25µM*
O=C(O)C1CC(=O)N(CCc2ccc(F)cc2)C1 (stereo not drawn)	-9%
CC(=O)Nc1ccccc1C(=O)C(=O)Nc1ccc(C(=O)N2CCOCC2)cc1	-23%
Cc1nc2ccccc2nc1-c1ccc([N+](=O)[O-])cc1	-3%
CC1CCN(C(=O)c2ccc3c(c2)OCO3)CC1	-19%
Cn1cnc2cc(OC(=O)c3ccccc3)ccc21	7%
Cn1c(N)c(C(=O)COC(=O)Cc2ccc(Cl)cc2Cl)c(=O)n(C)c1=O	3%
Cc1ccc(CN2C(=O)c3ccccc3S(=O)(=O)c3ccc(C(=O)OCC4CCCO4)cc32)cc1 (stereo not drawn)	9%
O=C(COc1cccc2ccccc12)N1c2ccccc2CCc2ccccc21	11%
Cc1ccc(C(C)CCN2CCC(n3nccc3NC(=O)c3ccccc3)CC2)o1 (stereo not drawn)	-16%
Clc1ccc2nncn2n1	3%
CCc1c(C(=O)NCCc2ccc(N3CCCCC3)cc2)[nH]c2ccc(Cl)cc12	-2%
COc1ccc(C(CNC(=O)Nc2ccc(Cl)cc2)N2CCN(C)CC2)cc1 (stereo not drawn)	-12%
COc1cc(C(=O)Nc2scc(-c3ccccc3)c2C(=O)O)cc(OC)c1OC	-16%
CC1CCCC(NC(=O)COC(=O)CCC(=O)c2ccc(F)cc2)C1C (stereo not drawn)	-6%
Cc1ccc(-n2ncc3c2CCCC3NC(=O)c2cnccn2)cc1C (stereo not drawn)	-11%
COc1ccc(-c2nc3c(c(SCC(=O)Nc4ccc(C(=O)O)cc4)n2)Cc2ccccc2O3)cc1	0%
COc1ccc(CCN(Cc2ccccn2)C(=S)Nc2cccc(SC)c2)cc1OC	9%
Cn1cnc(S(=O)(=O)N2CCN(C(c3ccc(F)cc3)c3ccc(F)cc3)CC2)c1	-5%
Cc1cc(C)n(-c2ccc(C(=O)OCC(=O)Nc3ccc(S(N)(=O)=O)cc3)cc2)n1	-11%
Nc1ccc(S(=O)(=O)NC2=NCCCCC2)cc1	-4%
Cc1cccc(N(CC(=O)NCc2ccco2)C(=O)CCC(=O)Nc2nccs2)c1C	5%

VDR inhibitor: entries above that show a hit
SMILES	VDR inhibitor
CCOC(=O)[C@@H](N)CS	40µM*
Cc1cc(O)c(-c2cc(O)c(C)cc2O)cc1O	25µM*

Continuation:
SMILES	VDR inhibitor
CCc1ccc(NC(=O)c2ccc3c(c2)c(C)c(C)n3Cc2ccccc2)cc1	7%
Cc1cc(=O)n2[nH]c(CCC(=O)O)nc2n1	-7%
CC1CCc2cc(F)ccc2N1C(=O)CSc1nnc2c(n1)[nH]c1ccc(F)cc12 (stereo not drawn)	3%
O=C1c2oc3ccc(F)cc3c(=O)c2C(c2ccccc2)N1CC1CCCO1 (stereo not drawn)	1%
O=C(NCc1cccc(F)c1)C1CCCN(C(=O)N2CCOc3ccccc32)C1 (stereo not drawn)	9%
CCOc1ccc(/C=C(/NC(=O)c2ccc(Cl)cc2)C(=O)O)cc1OCC	12%
Clc1ccc(CN2CCCCCC2)cc1	-6%
CCN1CCN(C(c2ccc(SC)cc2)c2c(O)cc(C)n(Cc3ccco3)c2=O)CC1 (stereo not drawn)	-15%
COc1cc(OC)c(C2C3=C(CCCC3=O)Nc3nc4ccccc4n32)cc1OC (stereo not drawn)	0%
Cc1ccccc1NC(NC(=O)c1cccnc1)C(Cl)(Cl)Cl (stereo not drawn)	-3%
O=C(COc1ccccc1F)Nc1ccc(N2CCOCC2)cc1N1CCOCC1	0%
COc1cccc(-c2cc(C(F)(F)F)n3ncc(C(=O)O)c3n2)c1	0%
OC(COC(c1ccc(F)cc1)c1ccc(F)cc1)CN1CCCC1 (stereo not drawn)	-1%
COc1ccc(Cl)cc1NC(=O)Nc1ccc(C(=O)N2CCCC2)cc1	26%
Cc1cccc(C)c1NC(=O)CN(C)C(=O)c1ccccc1Cc1ccccc1	13%
CCOC(=O)C1(Cc2cccc(F)c2)CCN(Cc2cnn(CC)c2C)CC1	-4%
O=[N+]([O-])c1cccc(N2Cc3ccccc3C2)c1	-21%
CCOC(=O)c1ccc(NC(=O)CCSCCc2ccccn2)cc1	8%
Cc1ccc(C(=O)n2cnnc2N)cc1	-7%
CCc1cc(C)cc(OCCNC(=O)c2ncn[nH]2)c1	8%
N#Cc1cc2ccccc2nc1SCC(=O)Nc1ccc(S(=O)(=O)N2CCCC2)cc1	-6%
CCOc1ccc(-c2nnc(SCC(=O)NCc3ccccc3)nc2-c2ccc(OCC)c(OC)c2)cc1OC	16%
Cc1cc(NC(=O)CSc2nnc(NCc3ccco3)s2)no1	23%
Cc1cccc(C(=O)N(Cc2nc3ccccc3c(=O)[nH]2)C2CCCCC2)c1	-14%
COc1ccc(Cl)cc1NC(=O)NCc1ccccn1	32%[activator]

(next part)
SMILES	VDR inhibitor
CCOc1ccc(CCNC(=O)c2csc3c2CCCCC3)cc1	7%
CCc1ccc(C(=O)c2cn(CC(=O)NCCc3ccccc3)c3nc(C)ccc3c2=O)cc1	2%
Cc1ccc(F)cc1NC(=O)CCC(=O)c1cccs1	19%
O=C(/C=C/c1ccco1)N1CCN(c2ccc(F)cc2)CC1	12%
COc1cc(NC(=O)Cn2cnc3c(nc4n3CCCCC4)c2=O)cc(OC)c1OC	-8%
CCc1cccc(NC(=O)c2ccc3c(=O)n4c(nc3c2)CCCCC4)c1	-8%
Cc1ccc(CCNC(=O)C2CCC(=O)N2Cc2cccnc2)cc1 (stereo not drawn)	-4%
CCCOCc1cc(CN2CCN(c3ccccc3OC)CC2)c(O)c2ncccc12	3%
c1ccc(-c2nnc(N3CCOCC3)c3ccccc23)cc1	6%
COc1ccccc1/C=C(/C(=O)OCC(=O)Nc1ccccc1C(C)C)c1ccccc1	0%
CCc1c(C)nc2ncnn2c1N1CCCC(C(=O)Nc2ccc(NC(C)=O)cc2)C1 (stereo not drawn)	-13%
O=C1Nc2ccccc2Oc2cc(Oc3cccc(Cl)c3)ccc21	13%
CCOC(=O)c1c(N)sc2c1CCN(CCc1ccccc1)C2	-12%
CC(C)N=C(Nc1ccccc1)c1cccnc1	0%
CSc1nsc(NC(=O)Nc2ccccc2)n1	6%
Cc1onc(-c2ccccc2)c1C(=O)n1cccn1	-5%
CC(C)COC(=O)Nc1nnc(SCCOc2ccccc2)s1	17%
CCN(CC)S(=O)(=O)c1cccc(NN=c2c(=O)c3ccccc3c2=O)c1	19%
CC12CCC(=O)N1C(C(=O)N1CCN(S(=O)(=O)c3cccc(Cl)c3)CC1)CS2 (stereo not drawn)	13%
COc1cc(SC)ccc1C(=O)NCCc1ccccc1	-5%
COc1ccc(Cl)cc1N(CC(=O)N1CCCCCC1)S(C)(=O)=O	-12%
O=C(CSCc1c(F)cccc1Cl)NCCSCc1ccco1	-14%
CCN(CC)CCCNC(=O)c1c2c(nc3ccccc13)C(=O)N(C1CCCCC1)C2	3%
CCC(CC)C(=O)NCCN1CCN(C(=O)C(CC)CC)CC1	20%
CCC1CCCCN1CCCNC(=O)CSc1nc2nc(C)c(Cc3ccccc3)c(C)n2n1 (stereo not drawn)	-8%
O=C(CCCn1c(=S)[nH]c2cc3c(cc2c1=O)OCO3)N1CCN(c2ccccc2F)CC1	8%

The list is partial; the hit share may differ from the screen's.
